# Bioassay records deposited in PubChem BioAssay by Southern Research Specialized Biocontainment Screening Center.
# Mtb betalactam = beta-lactam sensitization of Mtb H37Rv, H37Rv; M. tuberculosis H37Rv growth with meropenem, percent inhibition; hits of this screen are not shown here; inhibition, % at 25 µM; 330,000 tested, 0.27% active;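 active means about 74% or more and at least 40 points above the plate without the antibiotic, then above 30% in a dose series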;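 further: growth measured after seven days incubation then overnight dye step; 0% = bacteria only wells and 100% = bacteria with antibiotic; twin plates without the antibiotic show which effects depend on it; some results filed as inactive read as strong as hits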
# Active calls of the source: *.
SMILES,Mtb betalactam
CSCC[C@H](NC(=O)c1ccc(OCC2CCCO2)cc1)c1nc2ccccc2[nH]1 (stereo partly drawn),-12
CC[C@@H]1CCCCc2ccccc2[C@H](C(=O)C[C@H](O)CC(C)=O)OC1=O,6
COc1ccccc1/C=C/C(=O)OCC(=O)N1c2ccccc2CC1C (stereo not drawn),1
CC(C)(C)C(=O)CSc1ccc(S(=O)(=O)N2CCCC2)cn1,-13
O=C(Nc1ccc(Nc2ccccc2)cc1)c1ccccc1,-1
Cc1nnc(SCC(=O)N2CCN(c3cccc(Cl)c3)CC2)n1C1CC1,5
CCN(C[C@H]1N[C@@](C)(C(=O)OC)[C@H]2C(=O)N(Cc3ccccc3)C(=O)[C@@H]12)C(=O)C1CCCCC1,0
O=C(COC(=O)c1ccco1)Nc1cc(S(=O)(=O)N2CCOCC2)ccc1Cl,-4
Cc1ccc(/C=N/NC(=O)c2cccc(NC(=O)c3ccccc3C)c2)o1,0
CS(=O)(=O)c1cccc(C(=O)OCC(=O)Nc2ccc3c(c2)OCO3)c1,-12
Cc1c(C(C)CCCO)oc(=O)c2c1Oc1c(C)c(C(C)C[C@@H](C)O)oc(=O)c1C2 (stereo partly drawn),-8
COc1ccccc1N1CCN(C(=O)c2cccc(S(=O)(=O)N3CCCCCC3)c2)CC1,-8
O=C(Cn1nc(C(=O)O)c2ccccc2c1=O)Nc1cccc(S(=O)(=O)N2CCCCC2)c1,6
COc1ccc(NC(=O)[C@H](Cc2c[nH]c3ccccc23)NC(=O)[C@@H]2Cc3ccccc3CN2)cc1,-2
COc1ccc(NC(=O)C2=CC=CN3CCS(=O)(=O)N=C23)c(OC)c1,2
COc1ccc(S(=O)(=O)N(C)C[C@H]2Oc3ccc(NS(=O)(=O)c4cccs4)cc3CC(=O)N([C@H](C)CO)C[C@H]2C)cc1,-1
COc1ccc(NC(=O)CN(C)CC(=O)NC2CCC(C)CC2)cc1 (stereo not drawn),-7
COc1ccc(S(=O)(=O)Nc2ccc3c(c2)C(=O)N([C@H](C)CO)C[C@H](C)[C@@H](CN(C)C(=O)Nc2ccc(C(F)(F)F)cc2)O3)cc1,4
O=C(O)c1cccc2c1C(=O)c1ccc(N3CCCCC3)cc1S2(=O)=O,2
CCN(CC(=O)Nc1ccc(OC)cc1)C(=O)c1ccc(=O)n(Cc2ccccc2)n1,-3
Cn1c2ccccc2c(=O)c2cc(C#Cc3cccc(N)c3)ccc21,2
Cc1c(C(=O)N(C)CCOc2ccccc2)oc2c(Cl)cccc12,-1
CC(C)CN(C(=O)CCNC(=O)c1ccccc1Cl)C1CCS(=O)(=O)C1 (stereo not drawn),7
O=C(CSc1nncs1)NNC(=O)c1ccco1,-4
O=C(OCCN=C1NS(=O)(=O)c2ccccc21)c1ccccc1F,1
Cc1ccc(NC(=O)COC(=O)CCc2c(C)nc3nc(N)nn3c2C)cc1C,-6
CC(Sc1nnc(-c2cccnc2)o1)C(=O)NC1CCCCC1 (stereo not drawn),-3
CCC(=O)c1ccc(OCC(=O)OCC(=O)Nc2ccc(C)c(S(=O)(=O)N3CCCCC3)c2)cc1,0
O=C(COc1ccccc1F)NNC(=O)Cc1ccc(S(=O)(=O)N2CCOCC2)s1,2
C#CCOCCOCCOCCNc1nc(N2CCN(C(=O)CCCCCCCCCCNC(=O)[C@H](CCC(=O)O)n3cc(CCCCCN)nn3)CC2)nc(N2CCN(C(=O)CCCCCCCCCCNC(=O)[C@@H]([C@H](C)O)n3cc(C)nn3)CC2)n1,35
COc1cc(C(=O)NCc2ccc(S(N)(=O)=O)cc2)ccc1OCC(=O)N1CCOCC1,-6
CC(C)(C)OC(=O)C[C@H]1C/C=C\C[C@H](CC(=O)N(CCO)Cc2ccccc2)C(=O)N[C@@H](Cc2ccccc2)COC1=O,0
COc1cccc(/C=C/C(=O)OCC(=O)NCCCc2ccccc2)c1OC,4
O=C(c1cc(-c2ccncc2)nc2ccccc12)N1CCN(Cc2ccccc2)CC1,-7
CC(C)C(C(=O)NCC1CCCO1)N(CC1CCCO1)C(=O)CNS(=O)(=O)c1ccccc1 (stereo not drawn),-4
Cc1ccc(CNC(=O)[C@]2(C)CCC[C@@]3(C)C4CC[C@@]5(C)C[C@]4(CCC32)CC5=O)cc1 (stereo partly drawn),0
NC(=O)c1cc(NC(=O)COC(=O)CCCN2C(=O)c3cccc4cccc(c34)C2=O)cc(C(N)=O)c1,0
CCC(C)(C)C1CCc2[nH]nc(C(=O)NC(C)C)c2C1 (stereo not drawn),1
CC(C)(C)OC(=O)C[C@@H]1C/C=C\C[C@@H](CC(=O)N[C@@H](CO)Cc2ccccc2)C(=O)N2CCC[C@H]2COC1=O,-1
Cc1ccnc(Nc2nc(-c3ccc(O)c(O)c3)cs2)c1,9

# Quoted at random: 6 records from the list, in no set order.
SMILES,Mtb betalactam
CCC(=O)c1ccc(OCC(=O)OCC(=O)Nc2ccc(C)c(S(=O)(=O)N3CCCCC3)c2)cc1,0
Cc1ccc(CNC(=O)[C@]2(C)CCC[C@@]3(C)C4CC[C@@]5(C)C[C@]4(CCC32)CC5=O)cc1 (stereo partly drawn),0
CC(C)C(C(=O)NCC1CCCO1)N(CC1CCCO1)C(=O)CNS(=O)(=O)c1ccccc1 (stereo not drawn),-4
COc1cc(C(=O)NCc2ccc(S(N)(=O)=O)cc2)ccc1OCC(=O)N1CCOCC1,-6
Cc1c(C(=O)N(C)CCOc2ccccc2)oc2c(Cl)cccc12,-1
CC(C)CN(C(=O)CCNC(=O)c1ccccc1Cl)C1CCS(=O)(=O)C1 (stereo not drawn),7

# A second format for part of the listing above:
> C#CCOCCOCCOCCNc1nc(N2CCN(C(=O)CCCCCCCCCCNC(=O)[C@H](CCC(=O)O)n3cc(CCCCCN)nn3)CC2)nc(N2CCN(C(=O)CCCCCCCCCCNC(=O)[C@@H]([C@H](C)O)n3cc(C)nn3)CC2)n1
- Mtb betalactam = 35

> COc1cc(C(=O)NCc2ccc(S(N)(=O)=O)cc2)ccc1OCC(=O)N1CCOCC1
- Mtb betalactam = -6

> CC(C)(C)OC(=O)C[C@H]1C/C=C\C[C@H](CC(=O)N(CCO)Cc2ccccc2)C(=O)N[C@@H](Cc2ccccc2)COC1=O
- Mtb betalactam = 0

> COc1cccc(/C=C/C(=O)OCC(=O)NCCCc2ccccc2)c1OC
- Mtb betalactam = 4

# New compounds follow.
SMILES,Mtb betalactam
Cc1ccc(SCC(=O)Nc2oc(C)c3c(C)n[nH]c(=O)c23)cc1C,2
CN(C)CCCNC(=O)c1ccc(-c2cc(O)c3ncccc3c2)cc1,1
COc1ccc2nc(SCC(=O)Nc3ccc4[nH]c(=O)[nH]c4c3)[nH]c2c1,38
O=C(COC(=O)c1ccccc1OC(F)F)Nc1ccc(N2CCCCC2)cc1,-2
Cn1cccc1C(=O)NC1CCCCCC1,4
CC(C)c1cccc(-c2ccc3c(c2)S(=O)(=O)c2cccc(C(=O)NCc4ccccc4)c2C3=O)c1,5
O=C(Nc1cccc2cccnc12)c1cc(F)c(F)cc1Cl,10
CN(CCOc1ccc(Br)cc1)C(=O)CNC(=O)c1ccc2ccccc2c1,64
CN(Cc1ccccc1)C(=O)c1[nH]cnc1C(=O)NCCCCCNC(=O)OC(C)(C)C,2
Cc1ccc(C(=O)NNC(=O)c2ccccc2)cc1S(=O)(=O)N1CCCCC1,-13
C[C@H](CO)N1C[C@H](C)[C@@H](CN(C)C)Oc2c(NC(=O)CCCCCC(=O)Nc3ccccc3N)cccc2C1=O,2
COC(=O)C1=C(C)N(Cc2ccccc2)C(=NCCc2cccnc2)N[C@H]1c1ccc(Br)cc1,82
COC(=O)c1ccc(CNC(=O)COC(=O)c2cccs2)cc1,4
N#Cc1ccsc1NC(=O)COC(=O)CCS(=O)(=O)c1ccccc1,-7
O=C(COC(=O)CCNS(=O)(=O)c1ccccc1)Nc1ccc(OC(F)F)cc1,2
CC(=O)N(CC(C)C(=O)O)c1c(I)cc(I)c(N)c1I (stereo not drawn),-2
COc1cc(NC(=O)C(C)N2CCN(C(=O)C3CC3)CC2)cc(OC)c1 (stereo not drawn),8
Cc1ccc(CN(C)C(=O)c2cccc(S(=O)(=O)N3CCCC3)c2)cc1,-1
O=C(COC(=O)c1cnccn1)NC1CCCc2ccccc21 (stereo not drawn),-8
COC(=O)c1ccc(/C=C/C(=O)OCC(=O)Nc2ncc(Cl)cc2Cl)cc1,-4
COc1ccccc1-n1c(SCC(=O)NC2CCS(=O)(=O)C2)nc2ccccc2c1=O (stereo not drawn),-1
O=C(CN1C(=O)NC2(CCCC2)C1=O)NNC(=O)c1ccc(Cl)cc1,0
CS(=O)(=O)c1ccccc1-c1csc(N2CCC(C(N)=O)CC2)n1,-3
CCC(CO)Oc1cc(NC(=O)c2ccccc2N)c2ncn(C(C)C)c2c1 (stereo not drawn),6
CC1(C)C(=O)Nc2ccccc2N1C(=O)COC(=O)c1cccnc1Cl,5
CCc1ccc(C(=O)NNC(=O)[C@H](C)NC(=O)c2ccco2)cc1,-5
Cc1cc(C)c(C(=O)COC(=O)c2nn(C)c(=O)c3ccccc23)cc1C,-1
COCC(C)n1c(SCC(=O)NC(=O)Cc2ccccc2)nc2ccccc2c1=O (stereo not drawn),-4
COc1cc(C(=O)NNC(=O)CN2C(=O)NC3(CCCC3)C2=O)cc(OC)c1OC,-12
COc1ccc(S(=O)(=O)NC(C)C(=O)NCc2ccco2)cc1OC (stereo not drawn),-5
Cc1cccc(C2=NOC(=O)/C2=C\c2ccccc2F)c1,67
CCN(c1ccccc1)S(=O)(=O)c1ccc(Oc2ccc(C(C)=O)cc2OC)nc1,3
CCN(CC(=O)NC1CCS(=O)(=O)C1)C(C)C(=O)Nc1ccc(F)cc1 (stereo not drawn),-1
Cc1cc(NC(=O)CN2C(=O)NC(C)(CC(C)C)C2=O)no1 (stereo not drawn),-5
Cc1cc(C)c(NC(=O)CN(C)C(=O)C2CC(=O)N(c3cccc4ccccc34)C2)c(C)c1 (stereo not drawn),-4
Cc1cc(C)n2nc(SCC(=O)Nc3ccc(S(=O)(=O)N(C)C)cc3)nc2n1,0
Cc1cc(Cl)ccc1OCC(=O)NNC(=O)CCOc1ccccc1,3
C=CCC[C@@H](Cc1ccc(F)cc1)C(=O)OC[C@@H](Cc1c[nH]c2ccccc12)NC(=O)[C@@H](CC=C)CC(=O)NCCO,13
COc1ccc(C(CNC(=O)c2ccc(OC)c(S(=O)(=O)N3CCCC3)c2)N2CCCC2)cc1 (stereo not drawn),2
CCc1noc(C)c1C(=O)NNC(=O)c1ccccc1F,-5

# 2 successive entries from above, quoted:
SMILES,Mtb betalactam
COc1ccc(C(CNC(=O)c2ccc(OC)c(S(=O)(=O)N3CCCC3)c2)N2CCCC2)cc1 (stereo not drawn),2
CCc1noc(C)c1C(=O)NNC(=O)c1ccccc1F,-5

# (further entries)
SMILES,Mtb betalactam
Cc1ccc(C)c(NC(=O)CN(C)C(=O)c2ccc(S(=O)(=O)N(C)c3ccccc3)cc2)c1,1
COc1ccccc1NS(=O)(=O)c1cc(C(=O)N2CCCC2)ccc1C,-5
CCOc1cc(N2CCOCC2)c(OCC)cc1NC(=O)c1c(-c2ccccc2)noc1C,7
CCc1ccc(N2CCN(CCNC(=O)Nc3ccccc3)CC2)cc1,-2
CCc1cccc(OCC(=O)Nc2cc(Cl)ccc2-n2cncn2)c1,11
CCOc1ccccc1C(=O)NCC(=O)OCC(=O)N1CCCC1,2
COC(=O)C1=C(c2ccc(C(C)=O)cc2)C[C@@H]2CC[C@H]1N2C(=O)N1CCCCC1,6
COC(=O)C1=C(c2ccccc2OCc2ccccc2)C[C@@H]2CC[C@H]1N2C(=O)NC1CCN(Cc2ccccc2)CC1,40
COc1ccc(NC(=O)COc2ccc3c(c2)CCC3)cc1S(N)(=O)=O,5
COc1ccc2nc(SCC(=O)c3c(N)n(C4CC4)c(=O)[nH]c3=O)[nH]c2c1,-2
O=C(CNC(=O)Cc1ccccc1)NCc1cccs1,-9
CN1CCN(c2oc(-c3ccccc3)nc2S(=O)(=O)c2ccccc2)CC1,-2
Cc1ccc(NC(=O)CSCC(=O)N2CCN(C(=O)c3ccco3)CC2)cc1,2
C=CCOc1ccc(C=NNc2ccc(S(=O)(=O)Nc3ccccc3C(=O)O)cc2[N+](=O)[O-])cc1OC,4
O=C(COC(=O)c1ccc[n+]([O-])c1)Nc1ccc([N+](=O)[O-])cc1C(F)(F)F,-2
O=C(CCNC(=O)c1ccc([N+](=O)[O-])cc1)Nc1ccccc1N1CCCC1,-2
CCn1nc(C(=O)NCCc2ccc3c(c2)OCCO3)c2ccccc2c1=O,1
CCCc1cc(=O)[nH]c(SCC(=O)N2CCc3ccccc3C2)n1,6
CC(C(=O)OCC(=O)NC1CCCC1)N1C(=O)c2ccccc2C1=O (stereo not drawn),-2
CCOc1ccc(NC(=O)CN(C)C(=O)/C=C/c2ccco2)cc1OCC,7
CC(C)c1ccc(NC(=O)COC(=O)c2cc(=O)[nH]c3ccccc23)cc1,-11
O=C1NC(Cc2ccccc2)c2nc3ccc(F)cc3c(=O)n2-c2cc(Cl)ccc21 (stereo not drawn),7
Cc1sc2nc(CN3CCCC3)nc(N3CCN(S(=O)(=O)c4ccccc4)CC3)c2c1C,7
C[C@H](NC(=O)c1nc[nH]c1C(=O)NCCCCCNC(=O)OC(C)(C)C)c1ccccc1,-1
CC(C)C[C@H](NC(=O)N1CC(=O)Nc2ccccc21)C(=O)N[C@H](Cc1ccccc1)C(=O)O,1
CCN(C(=O)CSc1cccc[n+]1[O-])c1ccccc1,-3
COc1ccc([C@H]2CC(=O)C=C(c3ccc(-c4ccccc4)cc3)C2)cc1OC,9
COc1cc(OC)cc(C(=O)NC(C(=O)Nc2ccc3c(c2)CCC3)C(C)C)c1 (stereo not drawn),-11
CC1CCN(C(=O)COC(=O)C23CC4CC(CC(O)(C4)C2)C3)CC1,2
COc1cc(C(=O)NCCc2ccc(S(N)(=O)=O)cc2)ccc1OCc1c(C)noc1C,-3

# Only part of the results is shown. The share of hits here may be higher or lower than overall.
